eIF4H inh – inhibitors of RNA binding by human eIF4H. Q15056. eIF4H fluorescence polarization binding assay. inhibition, % at 35 µM. 290,000 tested, 0.94% active. AID 2012;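 active = 50% or more with normal probe brightness, or confirmed in later tests; inconclusive = above 50% with abnormal brightness, or retests that disagree; inactive = below 50% or failed in later tests; about a fifth of its hits are not listed in these tables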;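 note: calls also rest on retests at 20 µM and on dose response follow-up; 0% = protein and probe with vehicle and 100% = probe without protein; strong numbers were not always called active; many hits fall short of the cut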
MT1-MMP act inh – MT1-MMP (human) activation inhibition; HT1080 RFP-PRO-GFP cells, GFP/RFP ratio fluorescence, overnight; percent of plate control window, DMSO zero; 360,000 tested, 0.061% active; P50281; AID 651647; GFP/RFP ratio change, % at 20 µM;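 active = GFP/RFP ratio change of at least 30% with cell ATP level not reduced by more than half and red fluorescence within 50% of control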; note: strong numbers were not always called active
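Assay system: RFP-PRO-GFP reporter HT1080 cells; read-out basis: GFP/RFP fluorescence ratio; benchmarks: DMSO wells and RFP-L50D-GFP cells; doses: 20 µM single dose, 1% DMSO; schedule: overnight cell settling, then overnight compound exposure, 37 °C, 5% CO2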
Env fusion inh – blocks HIV Env-driven cell-cell fusion; AID 651610; 360,000 tested, 1.1% active; inhibition, % at 12.3 µM; HeLa-JRFL Env/CEM21 cell fusion, luciferase;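 active = mean replicate inhibition score of at least 50 and every replicate individually at or above 50; inconclusive = only one of the two criteria met; inactive = mean below 50 and not all replicates reaching 50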;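 note: 0% = plate neutral controls and 100% = maraviroc near 300 nM; one replicate is shown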
PABP polyA inh – PABP-poly(A) binding inhibition; PABP-poly(A) RNA binding, fluorescence polarization; inhibition, % at 35 µM; 290,000 tested, 1% active; AID 2014;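 active = 50% or more with normal probe brightness, or confirmed in later tests; inconclusive = above 50% with abnormal brightness, or retests that disagree; inactive = below 50% or failed in later tests; about a fifth of its hits are not listed in these tables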;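 note: calls also rest on retests at 20 µM and on dose response follow-up; controls were probe without protein and protein plus probe with vehicle; some compounds called inactive have numbers as strong as hits; many hits fall short of the cut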
UUG fidelity – modulators of start codon recognition fidelity in yeast. activity score, % at 18.7 µM. AID 602363. S. cerevisiae UUG-firefly luciferase reporter, luminescence/redox ratio. 350,000 tested, 0.13% active;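 active = replicate mean at a twofold rise or more, about +100% in these data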;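 note: firefly luciferase made from a UUG start codon reports start codon fidelity; reporter light over untreated wells divided by growth signal over untreated wells; some hits fall short of that in this replicate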
Rce1 inh – blocks yeast Ras-converting enzyme; yeast membranes, quenched prenylated peptide cleavage fluorescence; Q03530; 290,000 tested, 0.27% active; calls only;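 active = fall in fluorescence gain of 50% or more versus controls, with final raw signal at or below 3038400; inconclusive = same 50% fall but final raw signal above 3038400; inactive = fall in fluorescence gain under 50%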;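 note: plate controls were neutral control wells for no effect and wells lacking membranes for full effect; tested at 10 µM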
Target sequence (Q03530 whole entry, looked up): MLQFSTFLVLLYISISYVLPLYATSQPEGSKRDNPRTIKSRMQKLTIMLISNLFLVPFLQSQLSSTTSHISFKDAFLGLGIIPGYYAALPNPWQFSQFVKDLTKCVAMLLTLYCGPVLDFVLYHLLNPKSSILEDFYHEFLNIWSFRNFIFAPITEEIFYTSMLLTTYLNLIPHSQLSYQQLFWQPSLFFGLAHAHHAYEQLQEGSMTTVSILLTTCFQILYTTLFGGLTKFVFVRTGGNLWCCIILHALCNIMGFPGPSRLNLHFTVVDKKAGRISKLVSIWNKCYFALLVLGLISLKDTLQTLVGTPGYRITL
CSC inhib – blocks cancer stem cells | cancer stem cell-like cells viability, luminescence | inhibition, % at 7.5 µM | 300,000 tested, 1.1% active | AID 2717;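 active = mean at 75% or more and at least half the replicates too; inconclusive = mean and replicates disagree; tested in HMLE shEcad cells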;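 note: 0% = median of negative and 100% = median of positive control wells; the first replicate is given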
MT1-MMP act inh RFP – further read-out of MT1-MMP act inh, marked with its call; RFP signal change, %; measured here: RFP expression control read;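 0 = vehicle wells; hits needed this value within 50% of zero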
Numbers without * were called inactive; i = inactive; u = inconclusive; x = no result given.

Sequence of screens: CSC inhib	UUG fidelity	MT1-MMP act inh RFP	Env fusion inh	PABP polyA inh	MT1-MMP act inh	eIF4H inh	Rce1 inh
O=C(c1ccc([N+](=O)[O-])cc1)N(C1=NCCCCS1)c1ccccc1
    -1	-5	8	-28	-7	6	4	i
COc1ccc(NC(=S)N2CCc3ccccc3C2)cc1
    -7	x	0	-22	44	-2	1	i
O=C(NCc1cccnc1)C(=O)N/N=C/c1ccc([N+](=O)[O-])cc1
    -4	x	2	16	2	3	3	x
O=C(CCc1nc(-c2ccc(Cl)cc2)no1)NC1CCCC1
    -5	0	-3	-4	1	1	-12	i
Cc1cc(/C=C2/C(=N)N3C(=NC2=O)SN=C3S(C)(=O)=O)c(C)n1-c1ccc(F)cc1
    6	x	2	-22	-4	-4	u	i
CCN(CC)S(=O)(=O)c1ccc(N2CCOCC2)c(NC(=O)COc2ccc(Cl)cc2)c1
    -6	-17	-9	-79	-21	0	-13	i
O=C(Nc1cccc(Cl)c1)N1CCc2ccccc2C1
    1	-21	1	-30	14	2	-2	i
CC(C)c1cc(C(N)=O)c(NC(=O)c2cccc(COc3ccc(Cl)cc3)c2)s1
    57	-55	-5	x	8	-2	9	i
CC(CCc1ccccc1)NC(=O)CC(C)c1ccccc1 (stereo not given)
    -8	0	-7	-24	-16	-4	-1	i
COc1ccccc1/C=N/n1nnnc1N
    0	-21	2	-83	4	5	1	i
C=CCn1c(SCC(=O)NC2CCCC2)nc2c([nH]c3ccccc32)c1=O
    -3	-16	4	-16	-1	0	5	i
CCc1nnc(NC(=O)CSc2nnnn2-c2cccc(C(=O)OC)c2)s1
    -20	-5	3	x	5	-2	1	i
COc1ccc(S(=O)(=O)N2CCOCC2)cc1NC(=O)CSc1ncnc2ccccc12
    -2	x	3	5	17	1	-11	i
CNS(=O)(=O)c1ccc(CNC[C@H]2O[C@@H](n3cnc(C(N)=O)n3)[C@H](O)[C@@H]2O)cc1
    x	7	4	19	x	3	x	x
COc1ccc(CNC(=O)COC(=O)C2CCN(S(=O)(=O)c3ccccc3C(F)(F)F)CC2)cc1
    2	0	5	x	2	-1	-5	i
COC(=O)[C@H]1[C@@H](C)N(Cc2ccccc2)C(=O)N[C@H]1c1cccc(C(F)(F)F)c1
    -6	-10	-6	-33	x	-1	x	i
CCN(Cc1ccccc1)C(=O)COC(=O)CNC(=O)c1ccc(C)s1
    -4	x	-2	-1	4	-1	-2	i
Cc1cc(=O)[nH]c(Sc2c(-c3ccccc3)c3ccccc3[nH]c2=O)n1
    -19	-5	0	-86	0	-1	-4	i
COCCc1nc2ccc(C(=O)NCc3cccc(-n4cccn4)c3)cc2o1
    -1	1	0	0	-4	7	-7	i
COc1ccc(Oc2nc3ccccc3n3cccc23)cc1
    -11	-14	3	x	27	0	-2	i
CCOc1ccc(NC(=O)CN(C)c2nnnn2-c2ccccc2)cc1OCC
    8	-12	1	-25	7	3	12	i
Cc1cc(C)cc(NC(=S)NC2CC3CCCC(C2)N3C2CC2)c1 (stereo not given)
    9	x	2	-6	0	1	-4	i
CN(C)C(CNC(=O)c1cccs1)c1cccnc1 (stereo not given)
    -14	-17	4	-44	-9	2	-8	i
Cc1ccccc1C(=O)NCC(=O)OCC(=O)NC(C)C1CC2CCC1C2 (stereo not given)
    -4	-6	3	x	x	2	x	x
COc1ccc2nc(SCC(=O)Nc3ccccc3)[nH]c2c1
    -14	x	-2	-5	3	2	1	i
Cc1cc(C(F)F)nn1CC(=O)Nc1cc([N+](=O)[O-])ccc1F
    x	-5	0	19	-8	-1	0	i
COc1ccc(N2C(=O)CSC2c2ccccc2F)c(OC)c1 (stereo not given)
    -5	-10	2	13	9	-3	3	i
CCc1sc(C(=O)N2CCN(S(C)(=O)=O)CC2)cc1Br
    1	-15	0	x	6	3	-1	i
CCN(CC)S(=O)(=O)c1ccc(N2CCCCC2)c(C(=O)Nc2ccccc2N2CCOCC2)c1
    x	-10	-20	5	-6	-4	-4	i
COc1ccc(OC)c(-n2c(=S)[nH]c3c(sc(=S)n3-c3ccccc3C)c2=O)c1
    -19	x	0	-10	3	-3	-4	i
COc1ccccc1CCC(=O)OCC(=O)Nc1c(C)nn(-c2ccccc2)c1C
    11	-14	3	-8	x	-4	x	i
O=C(c1cc2cc(Br)cc(Br)c2oc1=O)N1CCOCC1
    -2	-6	1	-24	0	-5	0	i
Cc1ccc(S(=O)(=O)N(C)CCCC(=O)N2CCCCC2)cc1
    -7	-1	3	-3	-1	3	-2	i
Cc1ccc(S(=O)(=O)Nc2cc(C(C)C)c(O)cc2C)cc1
    17	-12	-2	14	-4	-5	0	i
COC(=O)C(NC(=O)COc1ccccc1)(Nc1nc2c(s1)CCCC2)C(F)(F)F (stereo not given)
    -4	-3	-1	1	-2	-1	1	i
Cc1cccc(C)c1NC(=O)N1CCC(n2cnc3ccccc32)CC1
    -4	x	5	-85	0	0	-3	i
COc1ccccc1Nc1nc(-c2sc(NC(=O)c3cccc(Cl)c3)nc2C)cs1
    1	x	x	x	7	x	-5	i
c1ccc(-c2cn3c(n2)SCC3)cc1
    -9	-23	2	x	-1	-1	1	i
Cc1nn(-c2ccc(C(=O)O)cc2)c(N)c1-c1ccccc1
    -5	-43	5	x	-4	2	-6	i
CCCS(=O)(=O)c1nnnn1-c1cccc(OC)c1
    x	-52	-5	x	-4	1	-10	i
CS(=O)(=O)c1ccc(C2=C(c3ccccc3)C(=O)OC2)cc1
    13	-16	1	-5	x	3	x	i
COC(=O)c1ccc(CSC2=NCCS2)cc1
    5	x	7	-16	-2	2	6	i
O=C(Nc1ccc2c(c1)OCCO2)c1ccc2ccccc2n1
    5	x	1	-137	-10	-2	3	i
O=C1S/C(=C\c2ccc(O)c([N+](=O)[O-])c2)C(=O)N1Cc1cccc([N+](=O)[O-])c1
    36	-10	-14	14	29	6	9	i
COc1ccc(NC(=S)c2ccc(N(C)C)cc2)cc1
    -2	x	4	-35	3	3	-9	i
Cc1c(N=Cc2ccc(O)c(Br)c2)cccc1[N+](=O)[O-]
    4	-7	4	u	7	1	-2	i
Cc1c(NC(=O)CN2C(=O)c3ccccc3C2=O)c(=O)n(-c2ccccc2)n1C
    11	-15	2	x	2	1	4	i
CS(=O)(=O)N1CCCC(C(=O)Nc2ccc(Br)cc2F)C1 (stereo not given)
    -10	-23	-4	25	-2	-6	2	x
CCc1ccc(OCC(=O)NNC(=O)c2cc(S(=O)(=O)N(C)C)ccc2N2CCCC2)cc1
    -3	-1	4	-3	x	11	x	i
Cc1cc(-c2nnc(CCC(=O)NCc3ccc(OC(F)(F)F)cc3)o2)no1
    -5	-13	5	3	13	7	-6	i
O=C(COC(=O)c1ccccc1)NCCCCc1ccccc1
    x	-13	3	-2	x	4	x	x
O=C(c1cccs1)N(c1ccc(F)cc1)C1C=CS(=O)(=O)C1 (stereo not given)
    -8	0	3	-4	-16	-1	2	i
COc1cccc(C(=O)Nc2ccc3nc4n(c(=O)c3c2)CCCCC4)c1
    x	2	-5	-23	x	-4	x	x
c1coc(-c2nc3ccccc3s2)c1
    x	-7	2	-29	x	-6	x	x
O=c1c2ccccc2nc(-c2ccc(Br)cc2)n1Cc1ccccc1
    21	-16	-12	x	-1	-14	-1	i
CCN(CC)CCCC(C)NC(=O)c1cccc(S(=O)(=O)N2CCc3ccccc32)c1 (stereo not given)
    -15	x	1	-3	-10	-4	-9	i
COC(=O)c1cc(C(=O)OC)cc(-n2c(C)cc(C(=O)COC(=O)CNS(=O)(=O)c3ccc(C)cc3)c2C)c1
    -4	x	2	x	-4	-4	36	i
CC12CCC3(CO)COC(c4ccccc4O1)C2C3 (stereo not given)
    -8	-17	-3	-9	2	-1	-3	i
Cc1ccc(CONC(=O)c2ccc([N+](=O)[O-])cc2)cc1
    -10	-34	-1	x	x	-2	x	x
CC(C)(C)OC(=O)CNC(=O)c1nc[nH]c1C(=O)NCc1ccc(CNC(=O)OC(C)(C)C)cc1
    -1	-5	-9	-89	-8	1	4	i
C/C(=N\NC(=O)CNC(=O)c1cccc(F)c1)c1ccc2ccccc2c1
    x	-23	2	6	0	2	-5	i
O=C(COc1ccc([N+](=O)[O-])cc1)NNC(=O)c1cccs1
    -12	-11	0	10	-11	4	0	i
C=CCn1c(=O)c2ccccc2n2c(SC(C)C(=O)Nc3nc(-c4ccccc4)cs3)nnc12 (stereo not given)
    x	-19	-8	-62	2	0	-3	i

In the list so far, seven contain a nitro group on carbon.
Sequence of screens: CSC inhib	UUG fidelity	MT1-MMP act inh RFP	Env fusion inh	PABP polyA inh	MT1-MMP act inh	eIF4H inh	Rce1 inh
O=C(c1ccc([N+](=O)[O-])cc1)N(C1=NCCCCS1)c1ccccc1
    -1	-5	8	-28	-7	6	4	i
O=C(NCc1cccnc1)C(=O)N/N=C/c1ccc([N+](=O)[O-])cc1
    -4	x	2	16	2	3	3	x
Cc1cc(C(F)F)nn1CC(=O)Nc1cc([N+](=O)[O-])ccc1F
    x	-5	0	19	-8	-1	0	i
O=C1S/C(=C\c2ccc(O)c([N+](=O)[O-])c2)C(=O)N1Cc1cccc([N+](=O)[O-])c1
    36	-10	-14	14	29	6	9	i
Cc1c(N=Cc2ccc(O)c(Br)c2)cccc1[N+](=O)[O-]
    4	-7	4	u	7	1	-2	i
Cc1ccc(CONC(=O)c2ccc([N+](=O)[O-])cc2)cc1
    -10	-34	-1	x	x	-2	x	x
O=C(COc1ccc([N+](=O)[O-])cc1)NNC(=O)c1cccs1
    -12	-11	0	10	-11	4	0	i

Source: PubChem BioAssay

Not a hit list. Share with any hit: about 2.9%.
